MLL AF4-AF9 inh – inhibitors of human MLL-AF4/AF9 interaction. AlphaScreen, biotin-AF4 peptide binding to FLAG-AF9. inhibition, % at 10 µM. hit rate 0.47% among 350,000;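 active = every replicate reaching a set inhibition limit, whatever the replicate mean, cut at about 25% in these data; inconclusive = mean inhibition reaches that limit but some replicates miss it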;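 note: 0% = plate neutral control median and 100% = total signal loss; the record names both 10 and 1 µM as test concentration; the first replicate is given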
Target sequence (P42568 whole entry, looked up): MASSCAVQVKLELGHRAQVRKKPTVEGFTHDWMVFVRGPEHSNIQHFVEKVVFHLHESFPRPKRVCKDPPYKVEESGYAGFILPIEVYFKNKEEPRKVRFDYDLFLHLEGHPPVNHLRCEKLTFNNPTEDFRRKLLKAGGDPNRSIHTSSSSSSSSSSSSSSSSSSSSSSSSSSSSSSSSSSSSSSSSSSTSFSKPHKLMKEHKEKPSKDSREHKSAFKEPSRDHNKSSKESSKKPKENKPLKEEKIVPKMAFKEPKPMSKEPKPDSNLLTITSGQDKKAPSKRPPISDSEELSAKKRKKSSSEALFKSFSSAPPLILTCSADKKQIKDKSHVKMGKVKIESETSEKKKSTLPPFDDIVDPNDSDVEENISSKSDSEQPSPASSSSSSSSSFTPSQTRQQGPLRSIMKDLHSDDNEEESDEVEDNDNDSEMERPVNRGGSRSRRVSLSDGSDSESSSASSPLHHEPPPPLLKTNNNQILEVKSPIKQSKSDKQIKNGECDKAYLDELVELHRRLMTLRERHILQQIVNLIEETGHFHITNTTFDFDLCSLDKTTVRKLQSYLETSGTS
FGF22 binding – shifts melting point of recombinant human FGF22. Q9HCT0. recombinant FGF22 thermal shift, SYPRO orange fluorescence; percent of sucrose octasulfate shift, DMSO zero. hit rate 1.5% among 340,000. calls only at 9.99 µM;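 active = melting point raised past a set limit in the mean and every replicate; inconclusive = no clear call; three in four hits are not shown here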
Target sequence (Q9HCT0 whole entry, looked up): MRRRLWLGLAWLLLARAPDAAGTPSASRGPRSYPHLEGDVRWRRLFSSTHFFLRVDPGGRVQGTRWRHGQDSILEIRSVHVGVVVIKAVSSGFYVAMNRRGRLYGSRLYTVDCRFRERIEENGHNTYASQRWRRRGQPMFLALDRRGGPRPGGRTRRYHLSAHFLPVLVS
Beta cell apopt – beta cell apoptosis inhibition. INS-1E cytokine-induced death, ATP luminescence, 48 h; percent of positive-control rescue, neutral wells zero. protection from apoptosis, % (concentration not given with the values). hit rate 0.8% among 300,000;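 active = all replicates at 75% or more, or half of them and the mean; inconclusive = half reach 75% but not the mean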;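 note: 0% = cytokine-treated negative control wells and 100% = positive control rescue; higher means more ATP so stronger rescue from cytokine killing; wells of about 40 µL received 100 nL stock; the first replicate is given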
ALR inh – human ALR oxidase inhibition via reduced H2O2. P55789. purified ALR, DTT oxidation, H2O2 HRP-luminol luminescence. inhibition, % (test concentration not listed). hit rate 3.8% among 290,000;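 active = mean and each replicate at 75% or more; inconclusive = only one of the two met; inactive = neither met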;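 note: stock transfer was 7.5 nL into about 7.5 µL; 0% = neutral wells and 100% = wells with inactivated enzyme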
Target sequence (P55789 whole entry, looked up): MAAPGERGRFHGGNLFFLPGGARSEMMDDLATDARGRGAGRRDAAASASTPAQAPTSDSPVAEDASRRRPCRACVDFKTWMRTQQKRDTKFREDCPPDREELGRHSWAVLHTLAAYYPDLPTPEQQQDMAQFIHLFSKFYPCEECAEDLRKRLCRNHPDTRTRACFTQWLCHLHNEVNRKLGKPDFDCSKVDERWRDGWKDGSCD
RanGTP-Impb inh – inhibitors of RanGTP-importin-beta interaction, primary screen, biochemical, FRET, CFP-Ran, YFP-importin-beta, homogeneous; hit rate 1.1% among 300,000; AID 2216; inhibition, % (no concentration beside the values); cell-free CFP-Ran/YFP-importin-beta FRET ratio;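 active = most replicates above 15%; inconclusive = exactly half above 15%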;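 note: 0% = DMSO wells and 100% = Ran loaded with GDP instead of GTP; wells of about 40 µL received 100 nL stock; the first replicate is given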
T cruzi repl – blocks replication of Trypanosoma cruzi; T. cruzi beta-gal in NIH3T3, luminescence, 90 h; inhibition, % (no concentration beside the values); hit rate 1.4% among 300,000;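 active = mean inhibition across valid replicates above about 55%, limit read from the data; inconclusive = mean below that limit but half or more replicates reach it; inactive = mean below it, under half of replicates reach it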;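 note: signal also drops with host cell toxicity which is not excluded here; 0% = plate median of DMSO wells and 100% = zero luminescence signal; higher percent means less beta-gal luminescence so fewer parasites; stock transfer was 50 nL into about 50 µL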
Calb FLC – affects C. albicans growth with fluconazole. C. albicans CaCi-2 (fluconazole-resistant clinical isolate) + fluconazole, Alamar Blue growth, 48 h. growth inhibition, % (concentration not given with the values). hit rate 0.57% among 300,000;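 active = most replicates above 75%; inconclusive = exactly half above 75%; inactive = most below 75%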;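 note: all wells also contain fluconazole at 8 µg/ml as a sub-toxic cotreatment; 0% = median of DMSO wells and 100% = median of geldanamycin control wells; wells of about 8 µL received 7.5 nL stock; the first replicate is given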
rRNA inh HTS – inhibits bacterial ribosomal RNA function over humanized ribosomes; E. coli WT GFP vs humanized-ribosome RFP mutants, fluorescence, 24 h; stronger effect = lower value; DMSO median 0, no signal -100; GFP signal change (wild-type ribosome), % (concentration not given with the values); hit rate 1.6% among 350,000; AID 720706;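 active = significant combined selectivity score with lowered wild-type GFP, culture density cut under 30%, mutant RFP and density less affected; inactive = any of these conditions unmet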; note: one replicate is shown; some compounds called inactive have numbers as strong as hits
rRNA inh HTS OD600 – also measured in rRNA inh HTS; calls as there; OD600 change, %; measured here: OD600 growth;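 optical density of the mix in the first replicate; 0 = DMSO median and -100 = no signal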
rRNA inh HTS RFP – further read-out of rRNA inh HTS, marked with its call; RFP signal change, %; measured here: RFP humanized mutant strains;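 first replicate; 0 = DMSO median and -100 = no signal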
Numbers without * were called inactive; i = inactive; ? = inconclusive; . = not tested or not shown. This is a subset (hit frequency here may not be typical).

SMILES	MLL AF4-AF9 inh	FGF22 binding	Beta cell apopt	ALR inh	RanGTP-Impb inh	T cruzi repl	Calb FLC	rRNA inh HTS	rRNA inh HTS OD600	rRNA inh HTS RFP
COc1cccc(NC(=O)COC(=O)c2nc3nccc(C)n3n2)c1	.	.	-1	-4	2.5	-4	-5	.	.	.
O=C(/C=C/c1ccccc1Cl)OCC(=O)N1CCCC1	3.4	.	3	7	.	.	.	-5	-2	1.2
CCOC(=O)C1Nc2ccccc2C2c3ccccc3CC12 (stereo not given)	.	.	7	-2	1.6	-2	7	.	.	.
CCn1c(CSc2nc(C)cc(C)n2)nnc1SCC(=O)Nc1cccc2ccccc12	1.8	i	-5	-14	-0.8	-7	1	-5	-3	2.3
Cn1c(SCC(=O)NC2CC2)nnc1-c1ccccc1Cl	-1.4	i	0	-2	2.1	-3	-2	1	7	-0.6
CC(=O)c1c(C)[nH]c(C(=O)NC2CCCCC2)c1C	.	.	-4	-34	1.0	-1	-13	.	.	.
COc1ccc(OC)c(S(=O)(=O)Nc2cc(C)on2)c1	0.1	i	-5	-3	5.1	-6	-35	18	16	0.1
Cc1ccccc1-c1nc(CS(=O)CC(=O)NCCN2CCN(Cc3ccccc3)CC2)c(C)o1 (stereo not given)	.	.	-1	99*	-2.0	-14	5	.	.	.
COc1cc(CNCc2cccc3ccccc23)cc(OC)c1	0.1	i	-2	-10	8.1	6	23	6	-19	-5.5
O=C(O)CC1(c2ccccc2)C(=O)c2ccccc2C1=O	.	.	0	-2	-1.7	-9	3	.	.	.
O=[N+]([O-])c1ccccc1S(=O)(=O)Nc1ccc2c(c1)OCCO2	-11	i	-3	0	-0.1	-5	0	4	5	-0.5
CCN(CC)CCCNC(=O)C1CCC(=O)N(c2ccc(OC)cc2)C1c1ccc(F)cc1 (stereo not given)	.	.	-4	4	54*	-12	18	.	.	.
O=C(Oc1c(-c2ccco2)oc2ccccc2c1=O)c1cccnc1	-0.6	i	1	.	2.9	-9	33	13	10	7.3
CN(C)c1nc(NCc2ccccc2)nc(N/N=C/c2ccc3c(c2)OCO3)n1	.	.	7	-2	1.6	29	3	.	.	.
CC(C)CC(NC(N)=O)C(=O)Nc1cccc([N+](=O)[O-])c1 (stereo not given)	-2.0	i	3	-3	3.0	2	19	2	7	2.3
Cc1cc(NC(=O)C2C3C(=O)N(Cc4ccc(Cl)cc4)C(C(=O)NCc4ccccc4)C34C=CC2(C)O4)no1 (stereo not given)	.	.	3	0	3.0	-10	2	.	.	.
Cc1ccc(OCC(=O)NCc2ccccn2)c(Br)c1	.	.	-2	-6	2.1	-1	9	.	.	.
Cc1ccn2cc(CNS(=O)(=O)c3ccc4c(c3)OCCO4)nc2c1	-5.8	i	-4	7	?	1	5	2	2	-9.5
Fc1ccc(NC(=S)NN=C2CCCCCC2)cc1	2.7	i	16	34	-5.5	-3	-19	6	4	-2.5
Cc1ccn2c(Nc3ccccc3C)c(-c3ccccn3)nc2c1	.	i	94*	.	5.1	50	55	-48	-49	-8.8
COc1ccc(/C=N/Nc2nnc(C)n2N)cc1OC(C)=O	-0.7	i	-4	-30	-2.7	-3	3	7	1	-3.0
Cc1cc(N2CCC(C(=O)N3CCN(c4cccc(C)c4C)CC3)CC2)n2ncnc2n1	.	.	8	-5	-3.7	-12	-5	.	.	.
Cc1cc(NC(=O)Cn2c(=O)c3c(ncn3CC(C)C)n(Cc3ccccc3)c2=O)no1	.	.	-6	0	-0.1	-1	?	.	.	.
O=C(C1CCC(CNS(=O)(=O)c2ccccc2)CC1)N1CCOCC1 (stereo not given)	-1.5	i	-7	2	-1.9	-7	-14	1	2	-2.0
C/C(=N\Nc1nncc2ccccc12)c1cccc(OC(F)F)c1	4.4	i	.	-9	5.6	4	2	5	11	-0.5
O=C(NCc1ccccn1)c1ccc(Cl)c(NC2=NC3CS(=O)(=O)CC3S2)c1 (stereo not given)	-0.8	i	-3	0	-1.7	1	0	3	16	2.2
Cc1ccc(C(=O)NC2CCN(CC(=O)Nc3cccc([N+](=O)[O-])c3)CC2)cc1	-0.2	i	3	-23	0.9	9	3	4	-7	0.3
CC1CCCN(CCC(=O)Nc2ccc3c(c2)CCC3)C1 (stereo not given)	.	.	-4	-5	2.5	-7	-15	.	.	.
NC(=O)CN1C(=O)C(=O)N(Cc2ccccc2)C1=O	2.4	i	-1	-1	-0.4	-1	-1	2	13	0.2
CN1C(=O)c2ccc(C(=O)NCc3ccccn3)cc2C1=O	-0.4	i	-5	0	-3.9	-2	5	15	15	2.2
COc1ccc(N(CC(=O)N/N=C(\C)CCc2ccccc2)S(=O)(=O)c2ccc(C)cc2)cc1	-19	i	-6	.	-2.1	4	2	-1	3	3.1
O=C(Nc1ccccc1C(=O)O)c1cc(S(=O)(=O)N2CCOCC2)cs1	-6.4	i	1	-2	5.2	-14	-1	0	-3	-4.7
Cc1cc(C)nc(Nc2ccc(N3CCOCC3)cc2)n1	.	.	3	99*	3.4	7	-2	.	.	.
Cc1c(C(=O)Nc2ccccc2)cn2c(nc3ccccc32)c1C#N	-8.7	i	11	-5	7.7	-2	-11	.	.	.
O=C(N/N=C/c1cc(Br)ccc1OC(=O)c1ccc(Br)cc1)c1ccncc1	11	i	92*	2	6.5	-6	?	-10	-12	-1.3
CCc1ccc(C2c3[nH]c4ccccc4c3CCN2C(=O)c2ccc(=O)n(C)n2)cc1 (stereo not given)	7.7	i	4	-4	2.6	20	88*	-10	-18	-3.6
CC1CCN(C(=O)C2CCN(S(=O)(=O)c3cnc[nH]3)CC2)CC1	.	.	1	-1	-2.2	0	2	.	.	.
O=C(Nc1ccc(N2CCCCC2)cc1)c1ccc2c(c1)OCCO2	.	.	.	45	2.7	41	-17	.	.	.
Cc1sc2nc(SCC(=O)NCCO)n(C)c(=O)c2c1C	.	.	-3	-1	-1.3	-17	-10	.	.	.
NC(CCCCCP(=O)(c1ccccc1)c1ccccc1)C(=O)O (stereo not given)	.	.	2	-3	8.9	-8	7	.	.	.
Cc1ccccc1C(=O)NNC(=O)C1CCN(C(=O)Nc2ccccc2)CC1	0.3	i	-1	-33	-4.8	-3	-3	0	-2	-1.6
COC(=O)C1(C)NC(c2ccco2)C2C(=O)N(c3ccc(C)cc3)C(=O)C21 (stereo not given)	.	.	-3	.	0.2	-13	2	.	.	.
COC(=O)c1ccc(OC(=O)C2CC(=O)N(c3cccc(C)c3)C2)cc1 (stereo not given)	.	.	0	-2	-5.7	-14	41	.	.	.
Nc1ccn(C2CC(O)C(CO)O2)c(=O)n1 (stereo not given)	-5.5	i	.	0	-1.9	-7	-6	.	.	.
C/C(=N\N=C(/N)SC1CC(=O)N(c2ccccc2)C1=O)c1cccs1 (stereo not given)	.	.	-3	0	1.6	-5	17	.	.	.
CCCCc1ccc(S(=O)(=O)NNC(=S)NCc2ccco2)cc1	-1.5	i	.	-3	0.2	-1	-2	.	.	.
COCCN(CC(=O)Nc1cccc(C)c1C)C(=O)C1(c2ccccc2)CC1	-0.4	i	3	-9	.	.	.	.	.	.
O=C(Nc1ccc(F)cc1)C(c1ccccc1)N1CCN(S(=O)(=O)c2ccccc2)CC1 (stereo not given)	.	.	1	-20	-2.5	-2	?	.	.	.

4 of the entries above in order of their number in MLL AF4-AF9 inh, ascending.
Molecule | MLL AF4-AF9 inh | FGF22 binding | ALR inh | RanGTP-Impb inh | rRNA inh HTS | rRNA inh HTS OD600 | rRNA inh HTS RFP
Nc1ccn(C2CC(O)C(CO)O2)c(=O)n1 (stereo not given) | -5.5 | i | 0 | -1.9 | . | . | .
CCCCc1ccc(S(=O)(=O)NNC(=S)NCc2ccco2)cc1 | -1.5 | i | -3 | 0.2 | . | . | .
COCCN(CC(=O)Nc1cccc(C)c1C)C(=O)C1(c2ccccc2)CC1 | -0.4 | i | -9 | . | . | . | .
Cc1ccccc1C(=O)NNC(=O)C1CCN(C(=O)Nc2ccccc2)CC1 | 0.3 | i | -33 | -4.8 | 0 | -2 | -1.6

Three of the compounds above, with values under each structure:
Under each structure: MLL AF4-AF9 inh | FGF22 binding | Beta cell apopt | ALR inh | RanGTP-Impb inh | T cruzi repl | Calb FLC | rRNA inh HTS | rRNA inh HTS OD600 | rRNA inh HTS RFP
- O=C(Nc1ccccc1C(=O)O)c1cc(S(=O)(=O)N2CCOCC2)cs1
  -6.4 | i | 1 | -2 | 5.2 | -14 | -1 | 0 | -3 | -4.7
- Cc1cc(C)nc(Nc2ccc(N3CCOCC3)cc2)n1
  . | . | 3 | 99* | 3.4 | 7 | -2 | . | . | .
- Cc1c(C(=O)Nc2ccccc2)cn2c(nc3ccccc32)c1C#N
  -8.7 | i | 11 | -5 | 7.7 | -2 | -11 | . | . | .

Following part:
SMILES	MLL AF4-AF9 inh	FGF22 binding	Beta cell apopt	ALR inh	RanGTP-Impb inh	T cruzi repl	Calb FLC	rRNA inh HTS	rRNA inh HTS OD600	rRNA inh HTS RFP
Cc1cccc([C@@H]2[C@@H]3C(=O)N(Cc4ccccc4)C(=O)[C@@H]3[C@]3(Cc4ccccc4)C(=O)N(c4ccccc4)C(=O)N23)c1	-1.2	i	3	-2	9.3	8	-4	6	-5	-2.3
CCCCn1c(N)c(N(CCOC)C(=O)c2ccc(OCc3c(C)noc3C)cc2)c(=O)[nH]c1=O	-1.0	i	-5	.	.	.	.	8	7	-0.7
CCN(CC)S(=O)(=O)c1ccc(NC(=O)c2cnc(C)cn2)cc1	2.6	i	-9	2	-3.4	-5	4	6	5	-0.3
Cc1ccccc1-n1c(Cn2c(=O)sc3ccccc32)nnc1SCC(=O)NCC1CCCO1 (stereo not given)	-4.0	i	-5	0	.	.	.	-1	-5	-1.7
COc1ccc(CNC(=O)CSc2nnc(Cn3nnc4ccccc43)n2C)cc1	-43	i	-12	-6	0.8	-5	27	11	11	-1.4

Single entries from above.
Value for COc1ccc(CNC(=O)CSc2nnc(Cn3nnc4ccccc43)n2C)cc1 under T cruzi repl: -5
Value for Cc1ccccc1-n1c(Cn2c(=O)sc3ccccc32)nnc1SCC(=O)NCC1CCCO1 (stereo not given) under ALR inh: 0

Source: PubChem (Broad Institute)
